Hsc70: Hsc70 inhibitors, probe displacement, primary screen, biochemical, fluorescence polarization (AID 568); 83,000 tested, under 10 active; Hsc70 fluorescence polarization, probe displacement; higher % means a stronger effect; strong numbers were not always called active; Heat shock cognate 71 kDa protein (Homo sapiens); displacement, % at 20 µM, or IC50 in µM where a hit was titrated;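 active means displacement above 50% without optical interference and an IC50 on retest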;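 further: ATPase domain with a fluorescein-tagged ATP probe; 0% = vehicle and 100% = excess ADP; read after one hour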
WNV NS2B-NS3 inh: inhibitors of WNV NS2B-NS3 protease, primary screen, biochemical, fluorogenic substrate. Genome polyprotein (West Nile virus), P06935. fluorogenic substrate Ex360/Em465; active compounds read low. z-score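 (tested at a level between 10 and 100 µM)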. 65,000 compounds, 0.18% hits;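 active means z-score at -3 or under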;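 further: score is relative to mean and spread of the compound wells of a plate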
Target sequence (P06935 1371-1501 limits assumed): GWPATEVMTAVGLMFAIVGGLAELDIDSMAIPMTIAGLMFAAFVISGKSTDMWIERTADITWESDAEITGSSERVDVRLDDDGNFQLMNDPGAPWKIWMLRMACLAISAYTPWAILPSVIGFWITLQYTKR
Target sequence (P06935 1502-1679 limits assumed): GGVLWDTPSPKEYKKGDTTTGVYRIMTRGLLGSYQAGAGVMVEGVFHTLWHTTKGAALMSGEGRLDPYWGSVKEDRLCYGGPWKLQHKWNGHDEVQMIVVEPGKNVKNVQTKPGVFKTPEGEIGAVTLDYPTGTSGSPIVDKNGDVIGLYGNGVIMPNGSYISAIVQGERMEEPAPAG
MT1-MMP reporter: inhibitors of MT1-MMP promoter transcription, cell-based, luciferase reporter, luminescence (AID 618); MT1-MMP promoter luciferase reporter cells, luminescence; calls from a first round at 10 µM; hits with a dose series show EC50 in µM; 87,000 compounds, 0.62% hits;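 active means over half of the reporter light lost at 10 µM or EC50 under 50 µM; inactive means the rest and hits that failed the dose series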;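 further: actives suppress MT1-MMP promoter-driven transcription so potencies describe inhibitors; HT1080 fibrosarcoma cells; overnight exposure; toxic or luciferase-blocking compounds were not removed from the actives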
* marks the source's active call; other numbers are inactive results; i = inactive; · = no result given; & = joins results of further samples.

SMILES | Hsc70 | WNV NS2B-NS3 inh | MT1-MMP reporter
CCN(CC)S(=O)(=O)c1ccc(OC(C)C)nc1 | 5.8% | -1 | i
CCCC(=O)Nc1ccc(N2CCN(C(=O)CCC)CC2)cc1 | 5.7% | 1.4 | i
O=S(=O)(c1ccccc1)c1nc(-c2ccco2)oc1N1CCOCC1 | 1.5% | -0.24 | i
Cc1nc(N2CCN(C(=O)c3ccc(Cl)cc3)CC2)c(C#N)c2c1COC(C)(C)C2 | 4.9% | 0.81 | i
CCOC(=O)C1=C(C)N(C)C(=O)NC1c1ccccc1OC (stereo unspecified) | -3.3% | 0.33 | i
C(=C\c1ccccc1)/CSc1nnc(-c2ccncc2)n1Cc1ccco1 | -5.8% | -0.2 | i
Cc1noc(C)c1S(=O)(=O)N1CCN(Cc2ccc3c(c2)OCO3)CC1 | -1.3% | -0.41 | i
Cc1cccc2cc(CN(CC3CCCO3)C(c3nnnn3Cc3ccco3)C(C)C)c(=O)[nH]c12 (stereo unspecified) | -14% | 0.29 | i
[O-][n+]1ccc(C2CC2)cc1 | 5.2% | -0.34 | i
COc1ccc(N2C(=O)C(Cl)=C(Nc3c(C)n(C)n(-c4ccccc4)c3=O)C2=O)cc1 | 0.6% | -0.07 | i
CCCc1cc(=O)[nH]c(SCc2ccccc2Cl)n1 | 2.1% | · | i
Cc1ccc(C(=O)C2=C(O)C(=O)N(CCCn3ccnc3)C2c2ccc(OC(C)C)cc2)o1 (stereo unspecified) | -6.6% | 0.98 | i
OC(COc1ccc2ccccc2c1)CN1CCN(c2ccc(F)cc2)CC1 (stereo unspecified) | 2.0% | -0.38 | i
CCSc1nnc(NC(=O)CSc2nc3c(c(=O)n2-c2ccccc2OC)SCC3)s1 | -7.7% | 0.71 | i
O=C(O)CSCC(=O)c1ccccc1 | 5.3% | -0.45 | i
COC(=O)C1CCN(C(=O)c2c(-c3ccccc3Cl)noc2C)CC1 | 0.5% | -1.3 | i
Cc1ccccc1N1C(=O)CC(Sc2nnc(-c3ccccc3)o2)C1=O (stereo unspecified) | -3.0% | -0.43 | i
NS(=O)(=O)c1cc2c(cc1Cl)NC=NS2(=O)=O | 1.0% | -1.9 | i
CCN(c1cccc(C)c1)S(=O)(=O)c1ccc2c3c(cccc13)C(=O)N2 | 2.6% | · | i
O=C(Nc1ccc2c(c1)OCO2)c1c(F)c(F)c(F)c(F)c1F | 0.8% | -1.1 | i
CCOC(=O)c1ccoc1CSCc1ccc(C(=O)OC)o1 | -3.4% | 0.56 | i
O=c1[nH]c(NCc2ccccc2)nc2c1CCCC2 | -0.3% | 0.61 | i
Cc1ccc2[nH]c3c(c2c1)CN(C(=O)CN1c2ccc(F)cc2CCC1C)CC3 (stereo unspecified) | 1.7% | · | i
Cc1sc2c(c1C)CN(Cc1ccco1)CN2C(=O)c1ccccc1 | 0.9% | -0.36 | i
Cc1ccc(NC(=O)C2CC(=O)n3ncnc3N2)cc1 (stereo unspecified) | 1.1% | · | i

Entries of single compounds from above.
`O=S(=O)(c1ccccc1)c1nc(-c2ccco2)oc1N1CCOCC1` is listed as Hsc70: 1.5%; WNV NS2B-NS3 inh: -0.24; MT1-MMP reporter: i
`CCN(c1cccc(C)c1)S(=O)(=O)c1ccc2c3c(cccc13)C(=O)N2` is listed as Hsc70: 2.6%; WNV NS2B-NS3 inh: ·; MT1-MMP reporter: i

Later entries
SMILES | Hsc70 | WNV NS2B-NS3 inh | MT1-MMP reporter
O=C(COC(=O)c1ccccn1)Nc1cccc(Cl)c1 | 2.2% | -1.4 | i
Cc1cc(-n2c(C)cc(C(=O)CSc3nnnn3-c3ccc(Cl)cc3)c2C)no1 | -7.7% | -0.47 | i
COCCNC(=O)C(c1ccco1)N(C(=O)Cn1nnc2ccccc21)c1cccc(C)c1C (stereo unspecified) | 2.2% | -0.75 | i
COc1ccc2c(Cl)c(C(N)=O)sc2c1 | -1.2% | -0.66 | i
O=C(COc1ccccc1)NCCSc1ccccc1 | 5.2% | -0.16 | i
CCOC(=O)c1cccc(NC(=O)c2cnccn2)c1 | 1.2% | -0.12 | i
CCOc1ccc(Br)cc1S(=O)(=O)Nc1nc(CN2CCOCC2)nc2sc(C)c(C)c12 | -30% | · | i
O=S(=O)(Nc1ccc2c(c1)OCCO2)c1ccc(F)cc1 | 0.2% | · | i
Cc1onc(-c2ccccc2)c1C(=O)Nc1ccccc1N1CCOCC1 | 3.9% | 0.79 | i
Brc1ccc(-c2nnc3sc(CN4CCN(c5ccccc5)CC4)cn23)cc1 | 3.2% | -1.4 | i
CCCCn1nnnc1SCC(=O)Nc1sc2c(c1C#N)CCCC2 | -5.1% | -1.4 | i
CSCCC(Nc1ncnc2ccc(Br)cc12)C(=O)O (stereo unspecified) | 0.2% | 0.17 | i
O=C(O)c1cnccn1 | -3.8% | -1.5 | i
CCOC(=O)c1ccc(NC(=O)CSc2ncccn2)cc1 | 9.0% | -0.63 | i
CCCCNC(=O)CCc1c(C)nc2nc(-c3cc(OC)cc(OC)c3)nn2c1C | -0.9% | · | i
O=C(O)c1ccc(-c2cccc(Cl)c2)o1 | 0.3% | · | i
CCOc1ccccc1C(=O)NC1CCN(Cc2nnnn2C2CCCC2)CC1 | 1.9% | -0.35 | i
O=C(Nc1ccc(N2CCN(C(=O)c3ccccc3)CC2)cc1)c1ccc2c(c1)OCO2 | 0.8% | · | i
NC(=O)CSc1nc2ccccc2c(=O)n1Cc1ccco1 | 1.6% | · | i
CC1=C(C(=O)OCC(C)C)C23C(=O)c4ccccc4C2(O1)OC(N)=C3C#N (stereo unspecified) | -5.6% | 0.79 | i
C=CCn1c(SCC(=O)Nc2cccc3ccccc23)nnc1-c1cnccn1 | -2.0% | · | i
O=C(NCc1ccccn1)Nc1cccc(Cl)c1 | 5.2% | 2.4 | i
COc1ccc(C(C#N)N2N=C(C)CC2(C)C)cc1OC (stereo unspecified) | -0.2% | · | i
Cc1ccc(-n2c(Cc3cccn3C)nnc2SCC(=O)N2CCc3ccccc32)cc1 | -3.0% | -0.17 | i
CON(C)c1nc(OCCNC(=O)OCc2ccc(Cl)cc2Cl)nc(N(C)C)n1 | -5.0% | -0.4 | i
SMILES | Hsc70 | WNV NS2B-NS3 inh | MT1-MMP reporter
O=C(O)C1CCCCC1C(=O)NCc1cn2ccccc2n1 (stereo unspecified) | 1.9% | 0.56 | i
OC(Cn1ccnc1)c1ccc(Cl)cc1Cl (stereo unspecified) | 5.3% | -0.41 | i
Cc1cc2nc(C)n3c4ccccc4nc3n2n1 | 2.3% | -2.1 | i
Cc1cc(Nc2ccc(N3CCC(C)CC3)cc2)n2ncnc2n1 | 2.2% | 0.09 | i
Cc1ccc(-c2nnn(CC(=O)N(Cc3cccs3)C(C(=O)NC(C)(C)C)c3ccc(C)o3)n2)o1 (stereo unspecified) | 5.6% | -0.69 | i
CC(C)c1nc(SCC(=O)NCc2ccc3c(c2)OCO3)c2c(=O)n(C)c(=O)n(C)c2n1 | 0.1% | 1.6 | i
COc1cc(NC(=O)C2COc3ccccc3O2)c(OC)cc1Cl (stereo unspecified) | 0.9% | -0.77 | i
Cc1csc(NC(=O)CCS(=O)(=O)c2ccc(Br)cc2)n1 | -9.0% | 1.4 | i
O=S(=O)(Nc1nc2c(s1)CCCC2)c1ccc(Br)cc1 | -3.4% | · | i
CCC1CCCCN1C(=O)CSc1nc2c(cnn2-c2ccc(C)cc2)c(=O)[nH]1 (stereo unspecified) | 3.7% | 0.35 | i
COc1ccc(CNC(=O)C(C#N)c2nc3ccccc3nc2N2CCCC2)cc1 (stereo unspecified) | 46% | 0.84 | i
COc1ccc(-n2nc(C(=O)NCC(=O)NCC3CCCO3)c3ccccc3c2=O)cc1 (stereo unspecified) | -4.8% | -0.21 | i
Cc1cc(C2C(C#N)=C(N)OC3=C2C(=O)CC(C)(C)C3)c(C)s1 (stereo unspecified) | -2.2% | · | i
Cc1cc(C)cc(NC(=O)CCNS(=O)(=O)c2ccc3c(c2)oc(=O)n3C)c1 | 0.8% | 0.89 | i
COC(=O)c1ccc(NS(=O)(=O)c2ccc3c(c2)oc(=O)n3C)cc1 | 4.3% | -0.96 | i
Cc1ccc(NC(=O)CN2C(=O)S/C(=C\c3ccc(-c4cccc(C(=O)O)c4C)o3)C2=O)cc1 | -55% | · | i
COc1ccc(CNC(=S)Nc2cccc(C)c2C)cc1 | 2.7% | · | i
Cc1ccc(C)c(NC(=O)CS(=O)(=O)c2c[nH]c3ccccc23)c1 | -4.1% | -0.71 | i
O=C(NC1CCCCC1)N1CCc2[nH]c3ccccc3c2C1 | 5.7% | 0.65 | i
COc1cccc(CN2C(=O)CCC2(C)C(=O)NC2CCCCC2)c1 (stereo unspecified) | 4.9% | -0.52 | i
O=C(Nc1ccc(F)cc1F)N1CCN(c2ncccn2)CC1 | 3.7% | 0.18 | i
CCOc1ccc(N(CC(=O)Nc2nccs2)S(=O)(=O)c2c(C)noc2C)cc1 | 0.9% | 0.73 | i
CCOc1ccccc1NC(=O)C1CCC(CNc2c(N3CCOCC3)c(=O)c2=O)CC1 (stereo unspecified) | 2.0% | -0.36 | i
CCN(CCCNC(=O)COc1cc(=O)n(CC)c2ccccc12)Cc1ccccc1 | -1.2% | 1.2 | i
C=CCSc1nnc(C)n1-c1ccc(Cl)cc1 | 2.2% | 0.77 | i

Molecules from the list above that have fluorine, in the order listed:
SMILES | Hsc70 | WNV NS2B-NS3 inh | MT1-MMP reporter
OC(COc1ccc2ccccc2c1)CN1CCN(c2ccc(F)cc2)CC1 (stereo unspecified) | 2.0% | -0.38 | i
O=C(Nc1ccc2c(c1)OCO2)c1c(F)c(F)c(F)c(F)c1F | 0.8% | -1.1 | i
Cc1ccc2[nH]c3c(c2c1)CN(C(=O)CN1c2ccc(F)cc2CCC1C)CC3 (stereo unspecified) | 1.7% | · | i
O=S(=O)(Nc1ccc2c(c1)OCCO2)c1ccc(F)cc1 | 0.2% | · | i
O=C(Nc1ccc(F)cc1F)N1CCN(c2ncccn2)CC1 | 3.7% | 0.18 | i

Further results:
SMILES | Hsc70 | WNV NS2B-NS3 inh | MT1-MMP reporter
O=C(CCN1C(=O)c2ccccc2C1=O)OCN1C(=O)c2ccccc2C1=O | -8.8% | -0.28 | i
CCN(CC)CCN1C(=O)C(=O)/C(=C(/O)c2ccc(OCC(C)C)cc2)C1c1ccncc1 (stereo unspecified) | -3.6% | 0.45 | i
Oc1cccc(-c2nc3ccccc3s2)c1 | 1.7% | 1.3 | 3µM*
COc1cccc(C2=N/C(=C\N(C)C)C(=O)O2)c1 | 1.6% | -0.13 | i
CC(NC(=O)c1nn(C)c(=O)c2ccccc12)c1ccc(F)cc1 (stereo unspecified) | 3.4% | 2.1 | i
O=C(O)CCSc1nc2ccccc2s1 | 4.9% | -0.15 | 15µM*
Cc1ccccc1NC(=O)C1CC(Cl)=CCC1C(=O)O (stereo unspecified) | 2.5% | -0.62 | i
O=C(CN1CCC(n2nnc3cc(C(F)(F)F)ccc32)CC1)Nc1ccc2c(c1)OCCO2 | 3.6% | -1 | i
Cc1ncc(S(=O)(=O)c2ccccc2)c(-c2ccc(Cl)cc2Cl)n1 | 2.1% | · | i
COc1ccccc1N1CCN(C(=O)c2ccc(Cl)c(S(=O)(=O)NCc3ccco3)c2)CC1 | -2.3% | · | i
COc1cc2nc(N3CCN(C(=O)C4CCCO4)CC3)nc(N)c2cc1OC (stereo unspecified) | 1.9%&-1.9% | -0.83&0.62 | i
CCC(=O)N(CCc1ccccc1C)Cc1cc2cc3c(cc2[nH]c1=O)OCO3 | -0.7% | -0.3 | i
CC(C)(C)NC(=O)C(c1ccncc1)N(C(=O)c1csnn1)C1CC1 (stereo unspecified) | -2.3% | -0.34 | i
CCNC(=O)N(C)c1nncnc1C(=O)NC | -2.3% | 1.1 | i
CCn1c(SCC(=O)N2CCN(c3ccc(F)cc3)CC2)nc2ccccc2c1=O | -9.5% | -0.96 | i
C1CCCN(CCCCN2CCCCCC2)CC1 | 3.9% | -0.03 | i
COCCNC(=O)C(OC(=O)c1cccs1)c1ccccc1 (stereo unspecified) | -10% | 0.55 | i
CCN1CCC(NC(=O)c2cc(OC)c(OC)cc2OC)CC1 | 11% | 0.05 | i
COC(=O)c1ccc(-c2nn(C)c(=O)c3ccccc23)cc1 | 4.1% | 0.19 | i
O=C(CCCCCN1C(=O)c2ccccc2C1=O)NCCc1nc2ccccc2[nH]1 | -7.4% | -0.36 | i
O=C(Oc1cccnc1)c1cccc(Cl)c1 | -1.0% | 0.27 | i
COc1cccc(NC(=O)COC(=O)c2ccco2)c1 | -1.7% | 0.95 | i
COc1ccccc1NC(=O)CSc1nnc(-c2ccccc2)o1 | 3.9% | 0.73 | i
Cc1c(C(=O)NCCN2CCOCC2)oc2ccc(S(=O)(=O)N3CCCCCC3)cc12 | -4.3% | -0.57 | i
Cc1ccc(CNC(=O)C(OC(=O)c2ccco2)C(C)C)cc1 (stereo unspecified) | -2.7% | -0.6 | i
O=C(NCc1ccc2c(c1)OCO2)C1(S(=O)(=O)c2ccccc2)CC1 | 0.5% | · | i
CCCCNC(=O)CN(c1cccc(F)c1)S(C)(=O)=O | 9.3% | · | i
Cc1cc(C)cc(N(C(=O)c2ccc3c(c2)OCO3)C2C=CS(=O)(=O)C2)c1 (stereo unspecified) | -3.3% | 0.5 | i
C/C=C/Cn1c(SC)nc2c1c(=O)[nH]c(=O)n2C | -6.8% | 0.61 | i
CCOC(=O)c1[nH]c2ccccc2c1NC(=O)c1ccc2c(c1)OCO2 | 5.7% | 0.38 | i

Source: PubChem
